# Assay outcomes: PubChem BioAssay, Broad Institute
# p53 mut binder – binders of human mutant p53, primary screen, biochemical, small molecule microarray, anti-GST fluorescence | mutant tumor protein p53 (GST-tagged), Homo sapiens | small molecule microarray binding | calls only | actives 0.4% (n = 17,000);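 active means compounds whose four printed spots each glow above background more than chance allows, each with a p-value under 7%; compounds were printed on slides so no solution concentration is given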;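 further: about 2 pmol printed per array spot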
# STAT3 SMM – STAT3 binders, primary screen, biochemical, small molecule microarray, single point, set 2; His-STAT3 binding, anti-His fluorescence; actives 0.2% (n = 17,000); Signal transducer and activator of transcription 3 (Homo sapiens), P40763; calls only;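 active means compounds whose four printed spots each show fluorescence over background unusually high for their array block, chance value under 7%; compounds were printed on slides so no solution concentration is given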;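 further: about 2 pmol printed per array spot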
# Myc binder – binders of human c-Myc, primary screen, biochemical, small molecule microarray, anti-His fluorescence; Myc proto-oncogene protein (Homo sapiens), P01106; His-c-Myc binding; calls only; actives 1.5% (n = 17,000);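 active means spot fluorescence over background with P-value below 7% in all four replicate spots, showing protein binding; compounds were printed on slides so no solution concentration is given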;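 further: score is binary with 100 for all four spots passing and 0 otherwise; about 2 pmol printed per array spot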
# ID4 binder – binders of human ID4 protein, primary screen, biochemical, small molecule microarray, single point | AID 624137, 2012 | Flag-ID4 binding, fluorescence F/B | actives 1.2% (n = 31,000) | DNA-binding protein inhibitor ID-4 (Homo sapiens), P47928 | calls only;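 active means spot signal over background at p below 0.07 in all four prints; compounds were printed on slides so no solution concentration is given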;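 further: a binder raises fluorescence above local background on the spot; about 2 pmol printed per array spot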
# Target sequence (P47928 whole entry, looked up): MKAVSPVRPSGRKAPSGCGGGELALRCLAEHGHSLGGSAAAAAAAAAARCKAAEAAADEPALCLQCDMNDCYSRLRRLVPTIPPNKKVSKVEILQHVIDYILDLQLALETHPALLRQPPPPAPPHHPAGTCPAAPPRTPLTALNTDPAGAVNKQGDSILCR
# Calls only; i = inactive; nt = no result given.
SMILES,p53 mut binder,STAT3 SMM,Myc binder,ID4 binder
O=C1N(c2ccccc2)c2ccccc2C1(Cc1ccncc1)Cc1ccncc1,i,i,i,i
COc1c(O)cc2c(c1O)C1OC(CO)C(O)C(O)C1OC2=O (stereo not given),i,i,i,i
CC1(C)Oc2ccc(C#N)cc2C(N2CCCC2=O)C1O (stereo not given),i,i,i,i
CC(=O)[C@H]1CC[C@H]2[C@@H]3C[C@H](C)C4=CC(=O)CC[C@]4(C)[C@H]3[C@@H](O)C[C@]12C,i,i,i,i
C=C1c2cccc(O)c2C(=O)C2C(=O)[C@]3(O)C(=O)C(C(N)=O)C(=O)[C@@H](N(C)C)[C@@H]3[C@@H](O)[C@H]12 (stereo not given in full),i,i,i,i
O=C(O)CCC/C=C\C[C@H]1C(=O)C[C@@H](O)[C@@H]1/C=C/[C@@H](O)CCc1ccccc1,i,i,i,i
C[C@]12CC[C@H]3[C@@H](CCC4=CC(=O)CC[C@@]43C)[C@@H]1CC[C@@H]2C(=O)CO,i,i,i,i
Nc1cc(-c2ccncc2)c[nH]c1=O,i,i,i,nt
CCCOc1ccccc1-c1nc2n[nH]nc2c(=O)[nH]1,i,i,i,i

# A second format for three compounds above:
C=C1c2cccc(O)c2C(=O)C2C(=O)[C@]3(O)C(=O)C(C(N)=O)C(=O)[C@@H](N(C)C)[C@@H]3[C@@H](O)[C@H]12 (stereo not given in full)
  p53 mut binder = i	STAT3 SMM = i	Myc binder = i	ID4 binder = i
O=C(O)CCC/C=C\C[C@H]1C(=O)C[C@@H](O)[C@@H]1/C=C/[C@@H](O)CCc1ccccc1
  p53 mut binder = i	STAT3 SMM = i	Myc binder = i	ID4 binder = i
C[C@]12CC[C@H]3[C@@H](CCC4=CC(=O)CC[C@@]43C)[C@@H]1CC[C@@H]2C(=O)CO
  p53 mut binder = i	STAT3 SMM = i	Myc binder = i	ID4 binder = i

# For convenience, 4 of the compounds above:
SMILES,p53 mut binder,STAT3 SMM,Myc binder,ID4 binder
O=C1N(c2ccccc2)c2ccccc2C1(Cc1ccncc1)Cc1ccncc1,i,i,i,i
COc1c(O)cc2c(c1O)C1OC(CO)C(O)C(O)C1OC2=O (stereo not given),i,i,i,i
CC1(C)Oc2ccc(C#N)cc2C(N2CCCC2=O)C1O (stereo not given),i,i,i,i
CC(=O)[C@H]1CC[C@H]2[C@@H]3C[C@H](C)C4=CC(=O)CC[C@]4(C)[C@H]3[C@@H](O)C[C@]12C,i,i,i,i

# This is a subset, so the mix of outcomes need not match the whole.
